Screens as filed in PubChem.
HPGD block – qHTS Assay for Inhibitors of HPGD (15-Hydroxyprostaglandin Dehydrogenase). purified HPGD, NADH fluorescence kinetic, PGE2 substrate. Potency, µM, for the others: at the highest dose activity change, negative = inhibition, hits mostly inhibitors. 150,000 tested, 4.3% active; active = well fitted inhibition curve with a large enough effect (not every such curve was filed as active); inconclusive = small, poorly fitted or top-dose-only effect, or another doubt; inactive = no such curve, though single readings can be large or run the other way;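 also: top concentration of the series not given in the record; plate controls included wells without enzyme; inactives centre near -10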
Target sequence (P15428 whole entry, looked up): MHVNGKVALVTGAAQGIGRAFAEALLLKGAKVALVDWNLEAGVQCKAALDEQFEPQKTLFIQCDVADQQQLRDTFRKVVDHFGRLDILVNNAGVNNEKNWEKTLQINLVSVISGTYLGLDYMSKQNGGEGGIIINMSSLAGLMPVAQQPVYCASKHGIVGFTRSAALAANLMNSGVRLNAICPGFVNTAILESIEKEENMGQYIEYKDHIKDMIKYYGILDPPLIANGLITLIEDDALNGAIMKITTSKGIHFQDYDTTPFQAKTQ
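20 nM HPGD preincubated 15 min at room temperature with compound in 50 mM Tris-HCl pH 8, 0.01% Tween 20. Started with 1 mM NAD+ and 30 uM prostaglandin E2; NADH fluorescence (360/450 nm) read 5 times over 30-s intervals, last minus first.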
Active calls of the source: *; ? = inconclusive; & = joins results of further samples. % is scaled to controls: 0 for no effect and ±100 for the full control effect; potency is read from the fitted curve at half-maximal effect. An excerpt; rates above refer to the full screens.

HPGD block	molecule
?	CSc1ccc(Cl)c(C(=O)NCCOc2ccccc2)c1
-12%	CC(C)CN1C=C2C(=O)C(C)(OC(=O)CCc3ccccc3)C(=O)C=C2C=C1c1ccc(C#N)cc1 (configuration not stated)
-7%	CCOc1ccc(N2CC(=O)N(c3ccc(OCC)cc3)CC2=O)cc1
14µM*	Oc1ccc(-c2n[nH]c(=S)n2-c2ccc3c(c2)OCCO3)c(O)c1
-15%	CC(Oc1ccc(Cl)cc1)C(=O)Nc1ncccn1 (configuration not stated)
-1%	CC(=O)Nc1ccc(S(=O)(=O)N2CCC(NC(C)=O)(c3cccc(F)c3)CC2)cc1
-9%	Cc1cccc(OCc2ccc(C(=O)Nc3ccc(F)cc3)cc2)c1
-2%	O=C(c1cnccn1)N1CCC2(CCN(Cc3ccccc3)CC2)CC1

Remaining list, next part:
HPGD block	molecule
-9%	COC(=O)CCn1nnc(-c2cccs2)n1
-11%	CCCCC1(C)NC(=O)N(CC(=O)Nc2ccc(S(=O)(=O)N3CCOCC3)cc2)C1=O (configuration not stated)
-4%	O=C(Nc1ccccc1)c1cccc(S(=O)(=O)NCc2ccco2)c1
-13%	Nn1c(SCC(=O)N2CCN(S(=O)(=O)c3ccccc3)CC2)nnc1-c1cccs1
-6%	COc1ccc(C2SCC(=O)N2c2c(C)n(C)n(-c3ccccc3)c2=O)cc1 (configuration not stated)
-4%	Cc1ccc(N(CC(=O)NCc2cccnc2)S(C)(=O)=O)cc1C
-4%	CCOC(=O)c1cnn(-c2nc(C)cc(C)n2)c1N
-15%	C[C@@]1(C(NC(=O)c2ccc(-c3ccccc3)cc2)c2ccc(Cl)cc2)C[C@H]1C1CCCCC1 (some centres not stated)

Later entries.
HPGD block	molecule
-9%	O=C1C=C(c2ccc(Cl)cc2)OC2(CCCC2)O1
3%	O=C(c1cnn2c(C(F)F)cc(-c3ccccc3)nc12)N1CCCc2ccccc21
-6%	Cc1cccc(C(=O)NNC(=O)CCC(=O)Nc2cccc(Cl)c2C)c1
?	Clc1ccc(NCn2cncn2)nc1
-9%	CCCC(=O)Nc1ccc(C(=O)NNC(=O)c2ccco2)cc1
1%	Cc1nn(Cc2cccc(F)c2)c(C)c1NC(=O)c1c(Cl)cnn1C
-15%	CCc1ccccc1Nc1nc(N)nc(COC(=O)c2cccn2C)n1
-6%	CCCCN1CNC(=S)N(c2cc(C)ccc2C)C1

More entries follow:
HPGD block	molecule
-3%	CCOC(=O)N1CCC(Nc2c(NCCCN(CC)Cc3ccccc3)c(=O)c2=O)CC1
2µM*	Cc1cc(C)c(C)c(S(=O)(=O)NCc2ccc(C(=O)N3CCCCC3)cc2)c1C
-19%	Cc1cc(C(=O)CSc2nnnn2-c2ccccc2)c(C)n1CC1CCCO1 (configuration not stated)
4%	NCC[C@H](N)C(=O)O
-6%	Cn1c(=N)n(CC(=O)C(C)(C)C)c2ccccc21
-4%	O=C(Nc1ccc2c(c1)OCCO2)N1CCN(c2ccccc2)CC1
-1%	COCC(C)n1c(SCC(=O)NCCC2=CCCCC2)nc2ccccc2c1=O (configuration not stated)
-4%	CCC(=O)Nc1ccc(C(=O)NNC(=O)c2cccs2)cc1

Going on with the list.
HPGD block	molecule
-6%	COC(=O)c1ccc(NC(=S)Nc2ccccc2)cc1
-2%	ON1C(c2ccccc2C(F)(F)F)N(O)[C@H]2CCCC[C@H]21 (some centres not stated)
-14%	CCOc1cc(C(=O)Nc2ccon2)cc(OCC)c1OCC
-10%&-19%&-12%	COc1ccc(NS(=O)(=O)c2ccc(N)cc2)nn1
-18%	CCC(OC(=O)C(NC(=O)c1ccccc1)c1ccccc1)C(=O)Nc1cc(C)on1 (configuration not stated)
-10%	O=C(CCN1C(=O)C2C3C=CC(C3)C2C1=O)Nc1ccc(F)cc1 (configuration not stated)
-11%	CC(=O)NC(C)C12CC3CC(CC(CC(=O)O)(C3)C1)C2 (configuration not stated)
?	COc1ccc(S(=O)(=O)N2CCC(c3cc(-c4cccc5ccccc45)n[nH]3)CC2)cc1

The list continues.
HPGD block	molecule
20µM*	CC(C)=CC(=O)NCCc1ccccc1
7.9µM*	COC(=O)c1cc(=O)c(O)c2c(O)c(O)ccc2c1
-10%	CCCCSc1nc2[nH]ncc2c(=O)[nH]1
?	CCOC(=O)c1c(C)nc2c(c(SC)nn2-c2ccccc2)c1N
-3%	Cc1ccc(S(=O)(=O)NCCC(=O)NCc2ccc3c(c2)OCO3)cc1C
0%	Cc1cc2c(OCC(O)CNC(C)(C)C)cccc2[nH]1 (configuration not stated)
-10%	Cc1ccc(S(=O)(=O)N(C)c2cc(S(=O)(=O)N3CCC(C)CC3)c(C)cc2C)cc1
-9%	Clc1cccc(Cl)c1-c1nnc2cccc(Cl)n12

(further entries)
HPGD block	molecule
-15%	CCOC(=O)c1csc(NC(=O)CSc2nnnn2-c2ccc(OCC)cc2)n1
-18%	COCc1cc(C)nc(SCC(=O)Nc2cccc(C)c2)c1C#N
-8%	O=C(COC(=O)c1ccc[nH]c1=O)NCC1CCCO1 (configuration not stated)
-5%&0%	C[C@@H](C(=O)Nc1ccc2ccccc2c1)[C@H]1C[C@]1(C)[C@H](NC(=O)c1cccnc1)c1ccccc1
-11%	CCCCCN(C(=O)NC(=O)Nc1ccccc1C)S(C)(=O)=O
-7%	Cc1nn(C)cc1CNC(=O)/C=C/c1cnn(C)c1
-5%	COc1cc(OC)cc(C(=O)N[C@H](C(=O)NC23CC4CC(CC(C4)C2)C3)C(C)C)c1
1%	COc1cccc(C(=O)N2CCN(S(C)(=O)=O)CC2)c1

Going on with the list.
HPGD block	molecule
?	O=C1CCCC2=C1C(c1ccccc1)C1C(=O)c3ccccc3C1=N2 (configuration not stated)
?	CCC(CC)NC(=O)COC(=O)c1cccc(C)c1O
-5%	COc1ccc([N+](=O)[O-])c2c1CCN2C(=O)CC[C@H](N)C(=O)O
-3%	O=C(Nc1ccc(C(F)(F)F)cc1)c1cc(-c2cccnc2)nc2ccc(Br)cc12
-11%	COc1ccc(N=C2C(=Nc3ccc(OC)cc3)N(c3ccc(N(C)C)cc3)C(=S)N2c2ccc(OC)cc2)cc1
-15%	COc1ccc(S(=O)(=O)Cc2ccc(C(=O)N3CCCC3)o2)cc1
?	COc1cc(NS(=O)(=O)c2ccc(Br)cc2)c(OC)cc1NC(=O)c1ccco1
?	Clc1cccc(-c2cc3nc4c(c(N5CCN(c6cnccn6)CC5)n3n2)CCCC4)c1

Next records
HPGD block	molecule
?	CCn1c(=O)cc(SCC(=O)NCc2ccco2)c2ccccc21
?	COc1ccc(-c2cc(C(F)(F)F)nc(SCC(=O)N3CCOCC3)n2)cc1OC
?	Cc1nnc(Cl)c2nn(-c3ccccc3)c(C)c12
?	NC(=O)C1(N2CCCCC2)CCN(C(=O)c2cccn3c(=O)c4cc(Cl)ccc4nc23)CC1
-10%	CCOc1ccc(-n2nnc3c(=O)n(CC(=O)N4CCCc5ccccc54)cnc32)cc1
-21%	CC(C)(C)CC(C)(C)c1ccc(O)c(Cc2ccc(Cl)cc2Cl)c1
-20%	COc1ccc(Cl)cc1NC(=O)C1CCCN(c2cc(C)nc3ncnn23)C1 (configuration not stated)
-4%	COc1ccc(OC)c(CN2C(=O)CCC2(C)C(=O)NC2CCCCCC2)c1 (configuration not stated)

(next part)
HPGD block	molecule
-18%	Cc1cc(C(=O)CN2CCC(C)CC2)c(C)n1-c1ccccc1F
-7%	COC(=O)c1cccc(NC(=O)CSc2nnc(COc3cccc(C)c3)n2C)c1
?	Cc1ccc(-c2cc(C(=O)NCc3ccccn3)c3ccccc3n2)cc1C
-4%	COc1ccccc1NS(=O)(=O)c1ccccc1C#N
-14%	N#CC1=C(N)OC2=C(C(=O)CCC2)C1c1ccccc1 (configuration not stated)
?	CCOC(=O)c1sc(C)c2c1NC(C)(c1cccs1)NC2=O (configuration not stated)
-6%	CCN(NC(=O)C(O)(c1ccccc1)c1ccccc1)C(=O)c1ccccc1
-8%	CCOC(=O)C(C)(C)Sc1nc2c(cnn2-c2ccc(Cl)cc2)c(=O)[nH]1

(more compounds)
HPGD block	molecule
-7%	Cn1c(=O)c2c(nc(CN3CCC(C(N)=O)CC3)n2Cc2ccccc2F)n(C)c1=O
?	CCOC(=O)C1=C(C)NC(C)=C(C(=O)OCC)C1C(=O)OC1CCOC1=O (configuration not stated)
-10%	Cc1nn(Cc2ccccc2Cl)c(C)c1NC(=O)c1cc(-c2ccc(F)cc2)on1
-11%	CC1CCCN(C/C(O)=C(\C#N)c2nc3ccccc3[nH]2)C1 (configuration not stated)
-2%	COC(=O)c1ccc(NC(=O)N2CCOCC2)cc1
-21%	CCC(=O)NC(=S)N1CCN(c2ccc([N+](=O)[O-])cc2Cl)CC1
-9%	Cc1cc(C#N)c2ccccc2n1
-4%	COc1ccc2[nH]cc(C(=O)CN3CCC(C)CC3)c2c1

Next section:
HPGD block	molecule
-20%	Cc1cccc(NC(=S)NNC(=O)CCn2cc(C)cn2)c1
-3%	CCOC(=O)c1c(C)oc2cc(Br)c(O)c(Br)c12
-4%	C/C(CC(=O)Nc1ccccn1)=N\NC(=O)c1ccc(C)cc1
-5%	O=C(CN1C(=O)c2ccccc2C1=O)Nc1cccnc1
-14%	COc1ccc(NC(=O)c2cc3n(n2)C(C(F)(F)F)CC(c2ccc(OC)cc2)N3)cc1 (configuration not stated)
-12%	Cc1oc(-c2cccc(Cl)c2)[n+]([O-])c1C
-3%	Cc1ccc(CCNC(=O)C2CCC(=O)N2C(C)C)cc1 (configuration not stated)
-14%	Cc1ccc(OCCCC(=O)Nc2ccc(N3CCOCC3)cc2)c(C)c1

Additional compounds follow.
HPGD block	molecule
-11%	CCSc1nc2c(c(=O)[nH]1)C(c1cccnc1)C(C(=O)OC(C)C)=C(C)N2 (configuration not stated)
-10%	CCn1c(C(C)NC(=O)c2ccc(OC)c(OC)c2)nc2ccccc21 (configuration not stated)
-12%	Cc1cccc(C)c1Nc1c(-c2ccc(N3CCOCC3)cc2)nc2ncccn12
?	Cc1cc2cc(CCNC(=O)CC(C)C)c(=O)[nH]c2cc1C
3%	COc1ccccc1-n1c(SCC(N)=O)nnc1-c1ccccc1
-16%	CCOc1ccc(NC(=O)c2ccccc2NC(=O)CN(C)CC(=O)Nc2ccc(C)cc2)cc1
-1%	O=C(O)CCC(=O)NNC(=O)c1cccc(Cl)c1
3.2µM*	Oc1ccc(Cl)cc1-c1cc(-c2cccc(Br)c2)n[nH]1

Carrying on.
HPGD block	molecule
-5%	CC(=O)NC12CC3CC(C1)CC(C(=O)Nc1nccs1)(C3)C2
-12%	O=S1(=O)N=C(Nc2nc3c(s2)CCCC3)c2ccccc21
-18%	COCCCN1C(=O)C(=O)/C(=C(/O)c2ccc(OC)cc2)C1c1ccc(O)c(OC)c1 (configuration not stated)
14µM*	Cc1ccc(N2C(=N)SCC2=O)cc1Cl
3.5µM*	Cc1ccc(/C=C2\SC(N3CCN(C(c4ccccc4)c4ccccc4)CC3)=NC2=O)o1
-16%	Cc1cccc(Oc2coc3cc(OC(=O)c4cc5ccccc5oc4=O)ccc3c2=O)c1
22µM*	Cc1ccc(CN(C)C(=O)c2ccccc2Oc2ccccc2)o1
-13%	Cc1cc(C(C)(C)C)cc(S(=O)(=O)Nc2cccc(C(=O)O)c2)c1C

Other records follow.
HPGD block	molecule
-11%	COC(=O)C(C)n1cnc2c(cnn2-c2ccc(Cl)cc2)c1=O (configuration not stated)
16µM*	COc1ccccc1N/N=C/c1ccc2c(c1)OCO2
-19%	C/C(=N/NC(=O)CNc1ccc(C)cc1)c1ccc(Br)s1
-20%	Cc1nn(C)c(C(=O)NNC(=S)Nc2ccc(Cl)cc2)c1[N+](=O)[O-]
-11%	COCCn1c(N)c(NCc2ccccc2)c(=O)n(CC(=O)Nc2cc(C)ccc2C)c1=O
-10%	CC1CCCCN1S(=O)(=O)c1ccc(S(=O)(=O)N(CC(=O)Nc2ccccc2)Cc2cccs2)cc1 (configuration not stated)
?	COc1ccc(/C=C/c2nnc(NC(=O)COc3cccc(C)c3)s2)cc1
22µM*	COc1ccccc1-c1cn[nH]c(=S)n1

(more compounds)
HPGD block	molecule
-19%	O=[N+]([O-])c1ccc(Sc2ccccc2Cl)nc1
2.8µM*	O=C(c1cc(-c2ccc(Cl)c(Cl)c2)on1)N1CCCCC1
-3%	Cn1c(=O)n(CC(=O)N2CCN(c3nnc(-c4ccccc4)c4ccccc34)CC2)c2ccccc21
-12%	COc1cc(/C=N/NC(=O)Cc2cccs2)c([N+](=O)[O-])cc1OC
